TRPML1 blocker: human mucolipin-1 channel inhibition | activity change, negative = inhibition, % (concentration not given with the values) | TRPML1-inducible cells, Ca2+ dye fluorescence, FDSS; hits give low values; inhibition of EC80 agonist-evoked calcium signal | Q9GZU1 | actives 0.02% (n = 390,000); in the data active means activity change below about -50%; inconclusive means about -30% to -50%; inactive means above about -30%;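 note: stimulus is agonist 54-4 at its EC80 concentration; % is set by controls: 0 for no effect and ±100 for the full control effect; compound concentration not given in the record; the text of the record puts the active cut at -80%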
Target sequence (Q9GZU1 whole entry, looked up): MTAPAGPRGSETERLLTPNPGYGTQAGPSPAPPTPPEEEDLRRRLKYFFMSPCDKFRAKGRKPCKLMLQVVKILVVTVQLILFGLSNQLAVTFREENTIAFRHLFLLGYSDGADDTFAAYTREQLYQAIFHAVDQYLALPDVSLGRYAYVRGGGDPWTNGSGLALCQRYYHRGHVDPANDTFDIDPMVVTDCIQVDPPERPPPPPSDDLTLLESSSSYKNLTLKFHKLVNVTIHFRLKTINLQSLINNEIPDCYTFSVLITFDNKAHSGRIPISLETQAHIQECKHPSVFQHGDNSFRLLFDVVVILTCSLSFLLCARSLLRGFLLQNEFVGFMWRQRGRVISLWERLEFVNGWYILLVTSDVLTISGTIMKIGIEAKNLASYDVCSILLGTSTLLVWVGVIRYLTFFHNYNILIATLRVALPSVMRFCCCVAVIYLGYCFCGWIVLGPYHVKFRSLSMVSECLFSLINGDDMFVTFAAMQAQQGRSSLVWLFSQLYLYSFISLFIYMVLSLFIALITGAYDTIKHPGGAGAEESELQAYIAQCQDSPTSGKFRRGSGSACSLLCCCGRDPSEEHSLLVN
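Calcium fluorescence in TRPML1-DL cells induced overnight with Tet: a 110 s read after compound pin addition, then a 110 s antagonist read after challenge with 54-4 at 4 uM final (EC80).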
ClpP mod: qHTS Assay for Activators of ClpP; ATP-dependent Clp protease proteolytic subunit (Bacillus subtilis (strain 168)), P80244; purified B. subtilis ClpP, FRET peptide cleavage, 20 min; Potency, µM (titrated, usually from 57.5 µM), inactives show top-dose activity change, negative = active; actives 1.9% (n = 340,000); active = well fitted falling curve with a large enough effect; inconclusive = small, poorly fitted or top-dose-only effect; inactive = no such curve, though single readings can be large or run the other way; note: potency is the fitted concentration of half-maximal effect; the source files actives as falling curves though it sought activators and does not explain the sign; nearly all actives have a fitted effect of over 65% in size; many hits overshoot -100%
Target sequence (P80244 whole entry, looked up): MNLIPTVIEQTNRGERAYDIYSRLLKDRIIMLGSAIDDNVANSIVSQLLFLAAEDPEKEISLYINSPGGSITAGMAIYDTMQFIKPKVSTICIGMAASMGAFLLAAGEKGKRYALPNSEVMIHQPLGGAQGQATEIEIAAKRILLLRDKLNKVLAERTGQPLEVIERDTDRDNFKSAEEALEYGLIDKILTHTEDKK
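Buffer: 100 mM Tris/HCl pH8, 100 mM KCl, 0.05% low protease BSA, 2.5% glycerol, 0.01% Tween-20. ClpP 10 microg/mL final; 20 min RT; delta FRET normalized to ADEP and DMSO controls.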
Starred values were filed as active, the others as inactive; ? = inconclusive.

SMILES	TRPML1 blocker	ClpP mod
COc1ccc2nc(NC(=O)c3nc(S(=O)(=O)Cc4ccc(C)cc4)ncc3Cl)sc2c1	-14	2.5%
O=C(CSc1nnc(-c2ccccc2)c(-c2ccccc2)n1)Nc1ccccc1Cl	-18	-1.0%
CC(NC(=O)c1cc2c(=O)n3ccccc3nc2n(C(C)C)c1=N)c1ccccc1 (stereo not drawn)	-13	4.5%
Cc1ccccc1OCc1nnc(SCc2cc(=O)c3cc(F)ccc3[nH]2)n1C	16	0.9%
CCOC(=O)C1CCN(Cc2cn3c(-c4ccc(OC)cc4)nnc3s2)CC1	-8	-3.8%
COc1cccc(CN2C(=O)C3(SCC(=O)N3c3ccc(C(C)C)cc3)c3ccccc32)c1 (stereo not drawn)	-1	-0.6%
O=C(CCCn1c(=O)c2sccc2n(Cc2ccc(F)cc2Cl)c1=O)NCc1ccc2c(c1)OCO2	-13	-0.7%
Cc1ccc2nc(NC(=O)c3cc(=O)c4cc(Cl)ccc4o3)sc2c1	-20	-1.5%
COc1ccc(-c2nnc(SCC(=O)c3ccc([N+](=O)[O-])cc3)o2)cc1OC	-29	0.8%
Cc1ccc2c(CC(=O)N3CCN(c4cccc(Cl)c4)CC3)coc2c1	-4	0.1%
CC(NC(=O)CSc1n[nH]c(-c2ccccc2)n1)c1nc2ccccc2n1C (stereo not drawn)	-13	-2.8%
Cc1ccc(Cc2nc3ccccc3nc2SCC(=O)Nc2ccc3c(c2)OCO3)cc1	-1	-1.3%
CCOc1ccc(CNC(=O)CCCn2nc(C)c3sc4ccccc4c3c2=O)cc1	-7	-9.0%
Cc1ccc(CCNC(=O)c2cc3sccc3n2Cc2ccc(Cl)cc2)cc1	21	?
CCN(CC)c1ccc(NC(=O)C2CCN(c3nnc(-n4cccc4)s3)CC2)c(C)c1	9	0.0%
CCc1ccc(C2CC(=O)Nc3c2c(C)nn3-c2nc(C)cc(C)n2)cc1 (stereo not drawn)	-1	-2.8%
Cc1ccc(N2CCN(C(=O)c3cnn(-c4ccc(F)cc4F)c3C3CCN(C(=O)OC(C)(C)C)CC3)CC2)c(C)c1	-10	-0.4%
CCCOc1ccc(Oc2nc(NCC(C)C)nc(N(C)C)n2)nn1	-10	0.3%
CCc1cc(C(=O)N2CCN(c3ccccc3)CC2)no1	-2	0.3%
Cc1c(C(=O)N(C)C)sc2c1c(=O)n(-c1ccc(F)cc1)c(=O)n2Cc1cc(=O)n2ccccc2n1	-19	?
COc1cccc(C(=O)Nc2cccc(OCc3cc(=O)n4cc(C)ccc4n3)c2)c1	-4	?
COc1ccccc1CNc1cc(C)nc2nc(-c3ccc(C)cc3)nn12	8	50%
COc1ccc2sc(N(Cc3cccnc3)C(=O)c3cccs3)nc2c1	29	5.8%
CCCCc1nn2c(=O)cc(COC(=O)C3CCCCC3)nc2s1	14	-1.2%
COC(=O)c1c(SCC(=O)Nc2cc(C)cc(C)c2)[nH]c2ccccc2c1=O	-11	-3.8%
COc1ccc(CCN2C(=O)N(c3ccc(C)cc3)C(=O)C2CC(=O)Nc2ccc(F)cc2)cc1 (stereo not drawn)	-4	-1.5%
CCCCOC(=O)c1ccc(NC(=O)c2cc3c(=O)n4cccc(C)c4nc3s2)cc1	21	-2.0%
Cc1ccc(Cc2cn3cc(-c4ccccc4)nc3s2)cc1	-7	-1.8%
COC(=O)c1ccc(Cn2c(=O)cc(C(F)(F)F)c3c(C)nn(C)c32)cc1	-5	-15%
Cc1cc(C)cc(OCC(=O)Nc2c(C)ccc3nsnc23)c1	16	-7.5%
Cc1ccc(C(=O)Nc2nnc(SCc3cc(=O)c4c(C)ccc(C)c4[nH]3)s2)cc1	93	-4.5%
O=C(CSc1nc(=O)n(Cc2cccnc2)c2c1CCC2)Nc1cccc(Cl)c1	62	-5.3%
CCCC1N=C2c3ccccc3N=C(SCC(=O)NCCc3ccc(Cl)cc3)N2C1=O (stereo not drawn)	-7	3.6%
NC(Cc1ccc(C(F)(F)F)cc1)c1csc(Nc2ccc(C(=O)NCCCO)cn2)n1 (stereo not drawn)	95	?
Nc1ncnc2c1ncn2[C@@H]1O[C@H](C(=O)NCCCN2CCCC2=O)[C@@H](O)[C@H]1O	11	-3.2%
O=C(COCc1cc(-c2ccc3c(c2)OCO3)on1)Nc1cc(Cl)ccc1O	15	0.3%
Cn1c(NCc2ccccc2F)nc2ccccc21	14	-1.2%
O=C(NCCCc1nc2ccccc2n1Cc1ccccc1Cl)c1ccco1	18	-2.0%
Cc1ccccc1Cn1cnc2nc3c(cc2c1=O)CC(C)CC3 (stereo not drawn)	-21	-5.7%
CCOc1ccccc1NC(=O)C1=C(C)Nc2ncnn2C1c1cccs1 (stereo not drawn)	11	-0.2%
Cc1cccnc1C(NC(=O)C1CCN(CCCOc2ccc(F)cc2)CC1)c1ccccc1 (stereo not drawn)	36	0.3%
CC1=C(C(=O)N(C(C)C)C(C)C)CC(CC(=O)NCc2cccc3ccccc23)C(=O)N1Cc1ccccc1 (stereo not drawn)	10	-3.0%
Cc1noc(-c2ccc(NCc3ccccc3)c([N+](=O)[O-])c2)n1	-18	-2.3%
c1ccc(N2CCN(c3ncnc4[nH]ncc34)CC2)cc1	6	0.3%
Cc1cccc(C)c1NC(=O)CCC(=O)N1Cc2ccccc2Oc2ncccc21	2	-5.5%
Cc1ccc(CN(C(=O)COc2c(C)cccc2C)C2CCS(=O)(=O)C2)o1 (stereo not drawn)	-5	-0.3%
CCOc1ccc(N2C(=O)c3[nH]nc(-c4ccccc4)c3C2c2ccc(O)c(OC)c2)cc1 (stereo not drawn)	-14	-7.2%
CC(C)C(=O)N1c2nc(-c3ccco3)nn2C2(CCCCC2)[C@@H]2CCCC[C@@H]21	27	-2.6%
Cc1noc(C)c1S(=O)(=O)N1CCCC(C(=O)Nc2ccc(C(C)C)cc2)C1 (stereo not drawn)	?	2.3%
Cc1ccc2oc(C(=O)N3CCC(c4nc5ccccc5s4)CC3)c(C)c2c1	-12	-5.3%
Cc1cc(C)c2oc(C(=O)Nc3ccc(S(=O)(=O)N4CCCCC4)cc3)cc(=O)c2c1	9	-2.5%
CCC1CN(S(=O)(=O)c2cc(-c3onc(C)c3C)ccc2C)c2cc(Cl)ccc2O1 (stereo not drawn)	-4	0.8%
O=C(/C=C/c1ccccc1Cl)Nc1nc(-c2cccs2)ns1	18	-8.4%
COc1ccc(NC(=O)CCc2c(C)nn(-c3ccc(N4CCOCC4)nn3)c2C)cc1Cl	-11	-1.6%
Cc1ccc(N(Cc2cccs2)C(=O)C(C)Oc2ccc(Cl)c(C)c2)cc1 (stereo not drawn)	-2	1.6%
CC(NC(=O)CCCN1C(=O)CCn2nc(-c3cn(C)c4ccccc34)cc21)c1ccccc1 (stereo not drawn)	-21	?
COc1cccc(NC(=O)C2CCN(C(=O)N3CC(C)Oc4ccccc43)CC2)c1 (stereo not drawn)	-18	-2.0%
COc1ccc(CCNC(=O)Nc2nc(C(N)Cc3ccccc3)cs2)cc1OC (stereo not drawn)	-7	-1.2%
Cc1ccccc1-c1nc(CNC(=O)NC2CCCCC2)c(C)o1	-12	-3.0%
COc1ccccc1NC(=O)C1CCCN(c2nnc(C)c3c(C)n(-c4ccccc4)nc23)C1 (stereo not drawn)	14	?

Next records:
SMILES	TRPML1 blocker	ClpP mod
O=C(Nc1ccc(F)c(F)c1)c1cc(S(=O)(=O)N2CCc3ccccc32)ccc1F	40	-6.9%
CC1CCCN(C(=O)c2ccc(CSc3nc4ccncc4n3Cc3ccccc3)cc2)C1 (stereo not drawn)	3	-8.3%
Cc1ccc(CNC(=O)c2cnc(N(C)C)nc2)cc1	-12	-18%
Cc1cc(N2CCN(c3cc(Cl)ccc3C)CC2)n2nc(-c3ccccc3)nc2n1	-10	-3.5%
Cc1ccc(C(=O)Nc2c(C(=O)NC(C)(C)C)oc3ccccc23)cc1	-3	-11%
Cc1nc2nc(NC(=O)c3ccc(C(C)(C)C)cc3)[nH]n2c(=O)c1Cc1ccccc1	-3	-0.5%
Cc1cc(N2CCC(C(=O)N(CC(C)C)CC(C)C)CC2)n2nc(C)c(-c3ccc(Cl)cc3)c2n1	1	-5.3%
CCOc1ccc(-c2nc(SCC(=O)Nc3ccc4c(c3)OCO4)c(-c3ccc(F)cc3)[nH]2)cc1	0	-1.0%
Cc1cc(Nc2cccc(C(F)(F)F)c2)nc2ccc(NC(=O)c3cncc(Br)c3)cc12	43	-4.9%
CCC(=O)N1c2ccc(S(=O)(=O)N3CCC(C)CC3)cc2CC1C (stereo not drawn)	15	-0.2%
COc1cccc(C(=O)Nc2ccc(-c3cn4cccnc4n3)cc2)c1OC	14	4.1%
CC(C)c1ccc(OCC(=O)Nc2ccc(S(=O)(=O)Nc3ncccn3)cc2)cc1	-8	-2.5%
Cc1ccc(Nc2c(-c3cccnc3)nc3ccc(Cl)cn23)cc1	18	-3.7%
O=C(NCC(c1ccc2c(c1)OCO2)N1CCOCC1)c1cccc(Cl)c1 (stereo not drawn)	?	-0.8%
COc1cc2c(cc1NC(=O)COc1ccc(Br)cc1C)oc1ccccc12	46	-8.0%

Not a retest: 15 of the compounds above.
SMILES	TRPML1 blocker	ClpP mod
O=C(Nc1ccc(F)c(F)c1)c1cc(S(=O)(=O)N2CCc3ccccc32)ccc1F	40	-6.9%
CC1CCCN(C(=O)c2ccc(CSc3nc4ccncc4n3Cc3ccccc3)cc2)C1 (stereo not drawn)	3	-8.3%
Cc1ccc(CNC(=O)c2cnc(N(C)C)nc2)cc1	-12	-18%
Cc1cc(N2CCN(c3cc(Cl)ccc3C)CC2)n2nc(-c3ccccc3)nc2n1	-10	-3.5%
Cc1ccc(C(=O)Nc2c(C(=O)NC(C)(C)C)oc3ccccc23)cc1	-3	-11%
Cc1nc2nc(NC(=O)c3ccc(C(C)(C)C)cc3)[nH]n2c(=O)c1Cc1ccccc1	-3	-0.5%
Cc1cc(N2CCC(C(=O)N(CC(C)C)CC(C)C)CC2)n2nc(C)c(-c3ccc(Cl)cc3)c2n1	1	-5.3%
CCOc1ccc(-c2nc(SCC(=O)Nc3ccc4c(c3)OCO4)c(-c3ccc(F)cc3)[nH]2)cc1	0	-1.0%
Cc1cc(Nc2cccc(C(F)(F)F)c2)nc2ccc(NC(=O)c3cncc(Br)c3)cc12	43	-4.9%
CCC(=O)N1c2ccc(S(=O)(=O)N3CCC(C)CC3)cc2CC1C (stereo not drawn)	15	-0.2%
COc1cccc(C(=O)Nc2ccc(-c3cn4cccnc4n3)cc2)c1OC	14	4.1%
CC(C)c1ccc(OCC(=O)Nc2ccc(S(=O)(=O)Nc3ncccn3)cc2)cc1	-8	-2.5%
Cc1ccc(Nc2c(-c3cccnc3)nc3ccc(Cl)cn23)cc1	18	-3.7%
O=C(NCC(c1ccc2c(c1)OCO2)N1CCOCC1)c1cccc(Cl)c1 (stereo not drawn)	?	-0.8%
COc1cc2c(cc1NC(=O)COc1ccc(Br)cc1C)oc1ccccc12	46	-8.0%

Later entries.
SMILES	TRPML1 blocker	ClpP mod
COC(=O)CCN(c1ccccc1)C(CNS(=O)(=O)c1ccccc1)c1ccccc1 (stereo not drawn)	1	-4.2%
CCN(CC)C(=O)CSc1nnc2ccc3ccccc3n12	2	-29%
Cc1ccc(-c2nc(CS(=O)(=O)CC(=O)NCc3ccccc3Cl)c(C)o2)cc1	21	?
CCc1ccc(CN(Cc2ccco2)C(=O)COc2ccccc2Cl)cc1	-4	-7.2%
COc1ccc(CNC(=O)c2ccc3c(c2)N(Cc2ccccc2F)C(=O)c2ccccc2S3(=O)=O)cc1	35	-16%
CCc1nc2ccc(C(=O)NCc3ccc4c(c3)OCO4)cn2c1N(CC)CCOC	-9	-1.3%
CCOc1ccc2nc(Cl)c(C3CC(c4ccc(OC)cc4)=NN3S(C)(=O)=O)cc2c1 (stereo not drawn)	3	-7.3%
CC(C)(C)c1ccc(C(=O)NCC(c2cccs2)S(=O)(=O)c2ccccc2)cc1 (stereo not drawn)	34	-13%
COc1ccccc1-c1nn(CCC(=O)Nc2ccccc2)c2nc(C)cc(C)c12	-14	3.3%
Cc1cccc(-c2cc(C(=O)O)c3c(-c4ccc(F)cc4)[nH]nc3n2)c1	-7	4.1%
CCc1cccc(C)c1NC(=O)CSc1nnc(CC)n2c1cc1occc12	6	-1.3%
Cc1ccc(-n2c(SCc3nc(-c4ccc(Cl)cc4)no3)nnc2-c2ccncc2)cc1	28	-0.6%
O=C(NC1CC(=O)N(c2ccc(Cl)cc2)C1)c1cccs1 (stereo not drawn)	2	-1.6%
CCn1cc(C(=O)OCC(=O)Nc2cccc(Cl)c2C)c(=O)c2ccc(C)nc21	-8	-0.2%
CCN(C(=O)NCc1noc2ccccc12)c1cc(C)ccc1C	26	-1.0%
COc1ccc(C(=O)NCC(c2ccco2)S(=O)(=O)c2cccs2)cc1OC (stereo not drawn)	-18	-1.2%
CCOC(=O)c1c(S(=O)(=O)NCC(=O)Nc2ccc(Cl)c(C(F)(F)F)c2)c(C)n(C)c1C	-14	-1.4%
CCOc1ccc2c(c1)c(=O)c(C(=O)c1ccc(C)cc1)cn2Cc1ccccc1OC	27	-3.3%
CC(C)COc1ccc(C(=O)N2CCN(CCc3ccccn3)CC2)cc1	-16	0.0%
Cc1[nH]c(=O)[nH]c(=O)c1S(=O)(=O)Nc1cccc(Cl)c1C	-7	-2.7%

Compound activity deposited in PubChem BioAssay by National Center for Advancing Translational Sciences (NCATS).

Some of the compounds tested, so the mix of outcomes need not match the whole.
